# FGF22 binding: binders of human FGF22 protein, primary screen, FGF22 synaptogenesis inhibitor project, biophysical, thermal shift, single point; Fibroblast growth factor 22 (Homo sapiens), Q9HCT0; recombinant FGF22 thermal shift, SYPRO orange fluorescence; percent of sucrose octasulfate shift, DMSO zero; calls only at 9.99 µM; 1.5% of 340,000 active; AID 651658, 2012;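 active = melting point raised past a set limit in the mean and every replicate; inconclusive = no clear call; three in four hits are not shown here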
# Target sequence (Q9HCT0 whole entry, looked up): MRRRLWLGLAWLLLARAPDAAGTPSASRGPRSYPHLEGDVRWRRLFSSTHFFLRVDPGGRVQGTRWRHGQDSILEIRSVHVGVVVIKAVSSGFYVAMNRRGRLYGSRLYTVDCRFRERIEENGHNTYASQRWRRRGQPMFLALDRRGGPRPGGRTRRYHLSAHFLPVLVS
# Ecoli rRNA inh: reduced GFP signal of wild-type E. coli, primary screen, bacterial rRNA inhibitor project, GFP/RFP fluorescence, OD600, single point; E. coli WT GFP vs humanized-ribosome RFP mutants, 24 h; hits give low values; DMSO median 0, no signal -100; GFP signal change (wild-type ribosome), % (test concentration not listed); 1.6% of 350,000 active; AID 720706, 2013;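 active = significant combined selectivity score with lowered wild-type GFP, culture density cut under 30%, mutant RFP and density less affected; inactive = any of these conditions unmet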; also: one replicate is shown; some compounds called inactive have numbers as strong as hits
# E coli growth: E. coli growth inhibition, primary screen, OD600 | Escherichia coli growth, 23 h; hits give low values | OD600 absorbance (test concentration not listed) | 0.21% of 330,000 active | AID 1053175, 2014;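 active = OD600 absorbance below the run mean of sample wells minus 3.6 SD, in any replicate, cut at about 0.56 in these data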;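 also: stock transfer was 300 nL into about 60 µL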
# MLL AF4-AF9 inh: inhibitors of AF4 peptide binding to AF9, primary screen, biochemical, AlphaScreen, biotin-AF4 peptide, FLAG-AF9, single point | inhibition, % at 10 µM | Protein AF-9 (Homo sapiens), P42568 | 0.47% of 350,000 active;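 active = every replicate reaching a set inhibition limit, whatever the replicate mean, cut at about 25% in these data; inconclusive = mean inhibition reaches that limit but some replicates miss it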;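 also: 0% = plate neutral control median and 100% = total signal loss; the record names both 10 and 1 µM as test concentration; the first replicate is given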
# Vif A3G: inhibitors of Vif binding to APOBEC3G peptide, primary screen, biochemical, TR-FRET, GST-Vif 1-94, biotin-A3G peptide, dose response retest (AID 1117319); TR-FRET GST-Vif / biotin-A3G peptide binding; higher % means a stronger effect; test concentration not given here; strong numbers were not always called active; 0.57% of 260,000 active; Virion infectivity factor (Human immunodeficiency virus type 1 group M subtype B (isolate …; inhibition, %; hits with a dose series show IC50 in µM;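 active = above the screen mean plus three standard deviations and confirmed in dose response; inconclusive = results disagree or hit not tested in dose response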;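 also: Vif residues 1-94 fused to GST binding biotinylated APOBEC3G peptide 110-148; 0% = full assay without inhibitor and 100% = GST in place of GST-Vif; retest series ran down from 100 µM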
# HNF4A DNA FP: change in binding of human HNF4A to DNA, primary screen, biochemical, fluorescence polarization, FITC-DNA. 1 h. activity change, % at 10 µM. Hepatocyte nuclear factor 4-alpha (Homo sapiens), P41235. 0.3% of 360,000 active; in the data active = activity change above about 30%, passing the limit was not always enough;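 also: controls were the assay level and a saturating level of protein; the project sought stronger binding though the title names inhibitors; some compounds called inactive have numbers as strong as hits; positive values seem to mean higher polarization but the record does not say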
# Target sequence (P41235 whole entry, looked up): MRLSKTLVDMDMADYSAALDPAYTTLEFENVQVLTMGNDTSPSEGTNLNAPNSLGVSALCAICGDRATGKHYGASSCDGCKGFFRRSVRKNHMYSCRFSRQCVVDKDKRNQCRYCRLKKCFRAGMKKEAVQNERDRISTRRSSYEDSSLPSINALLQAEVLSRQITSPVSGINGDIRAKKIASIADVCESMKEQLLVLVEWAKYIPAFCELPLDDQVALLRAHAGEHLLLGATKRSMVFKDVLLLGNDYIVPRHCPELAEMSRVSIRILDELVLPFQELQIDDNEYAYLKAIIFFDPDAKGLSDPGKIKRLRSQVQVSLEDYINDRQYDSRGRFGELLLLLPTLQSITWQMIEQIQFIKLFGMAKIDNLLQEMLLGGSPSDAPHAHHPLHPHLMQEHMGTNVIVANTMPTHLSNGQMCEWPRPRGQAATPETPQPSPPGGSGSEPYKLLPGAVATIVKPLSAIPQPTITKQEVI
# ALR H2O2 inh: inhibitors of human ALR sulfhydryl oxidase, primary screen, biochemical, H2O2 detection, HRP-luminol luminescence, single point. FAD-linked sulfhydryl oxidase ALR (Homo sapiens), P55789. AID 485317, 2010. purified ALR, DTT oxidation. inhibition, % (test concentration not listed). 3.8% of 290,000 active;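 active = mean and each replicate at 75% or more; inconclusive = only one of the two met; inactive = neither met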;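 also: stock transfer was 7.5 nL into about 7.5 µL; 0% = neutral wells and 100% = wells with inactivated enzyme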
# Target sequence (P55789 whole entry, looked up): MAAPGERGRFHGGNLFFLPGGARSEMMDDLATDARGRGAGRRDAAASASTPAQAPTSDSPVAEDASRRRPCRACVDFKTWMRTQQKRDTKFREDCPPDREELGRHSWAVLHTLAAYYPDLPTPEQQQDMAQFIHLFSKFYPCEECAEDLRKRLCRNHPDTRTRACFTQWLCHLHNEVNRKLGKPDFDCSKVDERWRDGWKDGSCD
# Ecoli rRNA inh OD600: further read-out of Ecoli rRNA inh, marked with its call; OD600 change, %; measured here: OD600 growth;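 optical density of the mix in the first replicate; 0 = DMSO median and -100 = no signal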
# Ecoli rRNA inh RFP: recorded beside Ecoli rRNA inh, whose call it bears; RFP signal change, %; measured here: RFP humanized mutant strains;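 first replicate; 0 = DMSO median and -100 = no signal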
# * hit, by the source's call; i = inactive; ? = inconclusive; . = no result given; & = joins results of further samples. An excerpt. The share of hits here may be higher or lower than overall.
Molecule,FGF22 binding,Ecoli rRNA inh,Ecoli rRNA inh OD600,Ecoli rRNA inh RFP,E coli growth,MLL AF4-AF9 inh,Vif A3G,HNF4A DNA FP,ALR H2O2 inh
C=Cc1ccc(Cn2c(C)c(C(=O)NCc3ccc(C#N)cc3)sc2=O)cc1,i,3.2,1.7,-2.4,.,8.0,.,1.4,.
O=C(C[C@H]1CC[C@@H]2[C@H](COC[C@@H](O)CN2C(=O)Nc2ccc(Cl)c(Cl)c2)O1)NCc1ccc(Cl)cc1,i,-60.3,-78.6,-24.4,.,-0.8,.,.,.
CCCCn1c(=O)[nH]c(=O)c2c1nc(Cn1ncc(Cl)c(Cl)c1=O)n2CCC,i,8.3,17.9,0.2,.,0.1,.,-1.5,-19.9
O=C(C[C@@H]1CC[C@@H]2[C@H](COC[C@@H](O)CN2C(=O)Nc2ccc(C(F)(F)F)cc2)O1)NC1Cc2ccccc2C1,i,-57.5,-78.7,-20.8,.,-3.5,.,.,.
O=S(=O)(c1ccc(F)cc1)N1CCN(Cc2nnc(-c3ccccc3)o2)CC1,i,6.8,-4.0,-1.0,0.671,-2.2,-5.1%,0.0,2.8
COCC(=O)N(C)C[C@H]1Oc2cc(-c3cccnc3)ccc2S(=O)(=O)N([C@H](C)CO)C[C@@H]1C,i,-2.2,-4.4,-2.1,.,-0.3,.,.,.
Cn1nc(C(C)(C)C)cc1C(=O)N1CCCCC1c1cc(C(=O)NCc2ccccc2)no1 (configuration not stated),i,-2.6,-31.8,7.6,.,-1.3,.,0.9,.
C[C@@H]1CN([C@@H](C)CO)C(=O)Cc2cc(NC(=O)Cc3cn(C)c4ccccc34)ccc2O[C@H]1CN(C)C(=O)NC1CCCCC1,i,-0.9,-0.8,-1.4,.,3.1,.,.,.
C/C(=N\OC(=O)c1c(-c2ccccc2Cl)noc1C)c1ccncc1,i,-22.9*,-6.0*,1.8*,.,3.1,-6.3%,1.4,-1.3
O=C(CSc1ccccc1)Nc1ccc(C(=O)Nc2cccc(O)c2)cc1,.,-2.7,0.6,-3.1,0.694,0.5,-7.4%,-2.5,.
O=C(CCc1ccccn1)NC1CCCc2c1cnn2-c1ccc(F)cc1F (configuration not stated),i,3.1,3.0,-1.3,0.728,7.7,-2.1%,-3.5,-5.7
CC(=O)c1ccc(-n2c(CCC(=O)O)ccc2-c2ccc(C)cc2)cc1,.,.,.,.,0.707,.,0.5%,1.6,8.1
COc1ccc(S(=O)(=O)N(C)C[C@H]2Oc3ccc(NS(=O)(=O)c4ccc(Cl)cc4)cc3C(=O)N([C@H](C)CO)C[C@@H]2C)cc1,i,-5.0,-7.7,3.6,.,0.7,.,.,.
CCN(C[C@H]1N[C@H](CO)[C@@H]1c1ccc(C2=CCCC2)cc1)C(=O)c1ccncc1,i,-4.0,-8.0,0.8,.,4.8,.,.,.
C[C@H]1CCCCO[C@@H](CN(C)Cc2ccccc2)[C@@H](C)CN([C@@H](C)CO)C(=O)c2cc(NC(=O)Nc3ccccc3)ccc2O1,i,-1.8,-31.2,33.2,.,13.9,.,.,.
CCOCc1nnc(NC(=O)C2CCN(C(=O)c3ccco3)CC2)s1,i,8.2,3.4,-0.3,0.687,-5.2,4.6%,-0.1,-19.9
C[C@@H]1CN([C@H](C)CO)C(=O)c2cc(C#CC3CC3)cnc2O[C@@H]1CN(C)C(=O)CC1CC1,i,1.5,11.2,-3.2,.,-3.7,.,.,.
COc1ccc(/C=N/Nc2cc(C)nc(-n3nc(C)cc3C)n2)c(OC)c1,i,.,.,.,.,11.5,.,0.9,0.3
Fc1ccc(OCc2nc3ccccc3s2)cc1,i,-12.1,-7.1,2.6,0.68,-5.0,23.8%,4.3,2.5
CCOC(=O)Cn1c(=O)oc2cc(S(=O)(=O)N3CCc4ccccc43)ccc21,i,-5.8,-23.8,1.6,0.707,-5.4,0.0%,0.5,.
Cc1ccc2cc(CN(Cc3ccco3)S(=O)(=O)c3c(C)ccc4nsnc34)c(=O)[nH]c2c1,.,.,.,.,0.684,.,-2.9%&2.6%,1.0,-1.1
Cc1cc(C)nc(SCc2nnc(SCC(=O)N3CCOCC3)o2)n1,.,.,.,.,0.704,.,-4.4%,0.4,-4.6
COC(=O)CSc1nnc(-c2cccs2)n1-c1ccc(Cl)cc1,.,.,.,.,0.642,.,4.3%,0.5,-2.9
CC1(C)Cc2c(C#N)c(N3CCN(C(=O)c4ccccc4Cl)CC3)nc(-c3ccco3)c2CS1,.,.,.,.,0.727,.,?,1.4,.
CN(Cc1ccccc1)C1CCN(Cc2ccccc2[N+](=O)[O-])CC1,i,2.7,-1.8,-0.2,0.676,4.4,.,3.3,.
COc1cc(CCN2C(=O)c3cccc4cccc(c34)C2=O)c(S(=O)(=O)NCCO)cc1OC,.,.,.,.,0.698,.,-0.3%,-0.7,-17.0
CC(C(N)=O)N1C(=O)C2C3C=CC(C3)C2C1=O (configuration not stated),.,.,.,.,0.735,.,-0.1%,-1.0,-38.1
C[C@H](O)C#Cc1ccc2c(c1)O[C@H](CN(C)C(=O)c1ccccc1)[C@H](C)CN([C@@H](C)CO)S2(=O)=O,i,4.5,6.8,-0.1,.,-3.0,.,.,.
CCc1noc(C)c1C(=O)N1CCN(S(=O)(=O)c2ccc(C(C)=O)cc2)CC1,i,8.5,9.3,0.1,0.679,-0.6,4.0%,-0.2,.
Cn1c(=O)c2c(nc(CN3CCc4ccccc4C3)n2Cc2ccc(F)cc2)n(C)c1=O,i,5.0,3.6,1.6,.,-33.3,.,6.7,-11.1
Cc1ccc(C(=O)NCc2ccc3c(c2)OCO3)cc1S(=O)(=O)N1CCCCC1,.,.,.,.,0.703,.,-3.3%,1.6,-1.3
CCCCNC(=O)CSc1nc2ccccc2c(=O)n1CC1COc2ccccc2O1 (configuration not stated),.,.,.,.,0.739,.,5.8%,-0.7,7.0
CO[C@H]1CN(C)C(=O)c2ccc(NC(=O)Nc3ccccc3F)cc2OC[C@H](C)N(C)C[C@@H]1C,i,1.0,-3.3,-1.7,.,0.9,.,.,.
CC(=O)OCCN1c2ccccc2Sc2cnccc21,i,-2.1,-22.0,-4.7,.,-0.2,-5.7%,0.3,.
Nc1nc2c([N+](=O)[O-])cccc2s1,i,6.2,6.4,3.8,0.62,-1.6,6.2%,-0.4,-4.8
CCc1ccc(CCC(=O)Nc2ccc(C(C)=O)cc2)o1,.,.,.,.,0.706,.,-0.7%,-1.5,27.0
COc1cccc(-c2cnc(C(O)c3ccc(-c4ccccc4)cc3)[nH]2)c1 (configuration not stated),i,-43.6,-66.5,-1.7,.,-0.2,.,-0.6,.
COc1cccc(/C=N/n2c(COc3ccccc3)n[nH]c2=S)c1OC,i,-4.3,2.3,-0.5,.,-2.9,2.5%,-0.9,-3.2
CCN(CC)S(=O)(=O)c1ccc(N2CC(C(=O)NCc3ccc4c(c3)OCO4)CC2=O)cc1 (configuration not stated),i,3.2,13.7,0.1,0.671,2.8,-12.7%,-1.7,0.4
COc1cccc(-c2nc(-c3ccc(NC(=O)c4cccs4)cc3)no2)c1,.,.,.,.,0.791,.,-22.1%,-3.2,-5.9
CC(C)n1c(O)c(N=Nc2ccc(Cl)c(C(=O)O)c2)c2ccccc21,i,-18.2*,-13.2*,7.2*,0.681,3.8,0.5%,1.0,26.6
CCOc1ccccc1N(CC(=O)Nc1ccccc1C(=O)O)S(C)(=O)=O,.,.,.,.,0.697,.,-11.1%,-2.5,2.1
O=C(COC(=O)c1ccccc1Cl)NCCC1=CCCCC1,i,-21.4*,-10.3*,5.6*,0.7,-3.9,1.6%,-2.1,-5.7
Cc1cccc(NC(=O)C2(c3ccc([N+](=O)[O-])cc3)CCCC2)c1,.,.,.,.,0.719,.,2.5%,1.9,-0.9
O=C(COc1ccc(Br)cc1Cl)NC1CCN(Cc2ccccc2)CC1,i,2.0,-7.0,5.5,0.683,4.8,0.2%,3.8,-3.7
COc1cc2c(N3CCOCC3)cc(O)c(CC(=O)Nc3ccccc3)c2cc1OC,.,.,.,.,0.72,.,10.9%,-1.7,8.9
CC(C)NC(=O)N(C)C[C@@H]1Oc2cc(C#Cc3ccc(F)cc3)ccc2S(=O)(=O)N([C@H](C)CO)C[C@H]1C,i,-3.5,-39.1,18.6,.,-0.2,.,.,.
Cc1ccc2c3c([nH]c2c1)C(=O)CC(C)(C)S3,i,14.4,-2.3,2.2,0.739,1.4,.,3.2,98.1*
c1ccc(Oc2ccc(-n3cnnn3)cc2)cc1,i,-14.8,-22.1,-2.4,0.648,4.5,8.1%,56.5*,-6.8
CCOc1cc(/C=N/n2cnnc2)ccc1OS(=O)(=O)c1ccccc1,i,-26.1,-35.0,-7.2,.,2.3,6.1%,0.4,-6.2
NC(=O)c1sc2nc(-c3ccccc3)ccc2c1N,i,1.2,5.9,3.7,0.67,-7.6,.,35.1,-3.5
Clc1ccccc1/C=C/C=N/Nc1nc(N2CCOCC2)nc(N2CCOCC2)n1,i,-9.6,-5.9,26.5,.,14.1,-1.8%,-14.7,-14.7
CC(c1nc2ccccc2[nH]1)n1c(=O)c(-c2cccnc2)nc2ccccc21 (configuration not stated),i,15.9,8.2,2.6,.,-1.7,.,-3.0,.
COC(=O)/C(=C\c1ccc2c(c1)c1ccccc1n2C)NC(=O)c1ccccc1,.,.,.,.,0.683,.,.,-3.3,-0.7
CC(C)c1nc2n[nH]c(N)c2c2c1CCC2,.,.,.,.,0.702,.,-5.6%,-5.4,6.2
O=C(Nc1ccccc1)C1CCN(C(=O)c2ccc([N+](=O)[O-])cc2)CC1,i,5.3,-5.2,-2.3,0.728,-0.9,.,-0.5,-4.0
COc1ccc(C2CC(=O)Oc3c(C(CCN4CCN(c5ccccc5)CC4)c4ccc(N(C)C)cc4)c(OC)cc(OC)c32)cc1 (configuration not stated),i,10.2,4.4,-0.8,0.718,14.1,.,-4.7,2.6
CC(C)NC(=O)Nc1ccc2c(c1)C(=O)N([C@@H](C)CO)C[C@H](C)[C@@H](CN(C)Cc1ccc3c(c1)OCO3)O2,i,2.2,1.1,-2.8,.,-2.2,.,.,.
Cc1nn(CCC(=O)NCc2ccc(N(C)C)cc2)c(=O)c2nn(-c3ccccc3)c(C)c12,i,2.8,14.4,-0.4,0.686,-2.1,.,6.7,-0.3

# Whole records, quoted from the list. Values in the order: FGF22 binding | Ecoli rRNA inh | Ecoli rRNA inh OD600 | Ecoli rRNA inh RFP | E coli growth | MLL AF4-AF9 inh | Vif A3G | HNF4A DNA FP | ALR H2O2 inh
# Cc1nn(CCC(=O)NCc2ccc(N(C)C)cc2)c(=O)c2nn(-c3ccccc3)c(C)c12 in the list: i | 2.8 | 14.4 | -0.4 | 0.686 | -2.1 | . | 6.7 | -0.3
# CC(C)NC(=O)N(C)C[C@@H]1Oc2cc(C#Cc3ccc(F)cc3)ccc2S(=O)(=O)N([C@H](C)CO)C[C@H]1C in the list: i | -3.5 | -39.1 | 18.6 | . | -0.2 | . | . | .
